Screening data: PubChem, National Center for Advancing Translational Sciences (NCATS)
CtBP-E1A inh: blocks the CtBP interaction with E1A; AlphaScreen GST-E1A/His-CtBP binding, 1536-well; hits give low values; control for the full effect not named in the record; activity change, % (no concentration beside the values); 0.49% of 340,000 active; AID 651724; in the data active means activity change below about -65%; inconclusive means about -30% to -65%; inactive means above about -30%; also: % is scaled to controls: 0 for no effect and ±100 for the full control effect; compound concentration not given in the record
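Protein mix (5X: 125 nM each GST-E1A, His-CtBP) was incubated with pinned compound 2 h at 37 deg C in dark, in 50 mM Tris pH 8.0 buffer with 300 mM NaCl. Glutathione donor and nickel acceptor beads followed; AlphaScreen signal read after 1 h.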
PINK1 expr mod: PINK1 expression modulation; Potency, µM (titrated, usually from 76.6 µM), without a hit: at the highest dose activation (PINK1 increase), most hits filed as activators; PINK1 immunofluorescence, high-content cytometry, 24 h; 0.2% of 410,000 active; active = well fitted activation curve with a large enough effect; inconclusive = small, poorly fitted or top-dose-only effect; inactive = flat fitted curve, though single readings scatter; cell line not stated here;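 also: potency is read from the fitted curve at half-maximal effect; % of control where 0% means no effect; nearly all actives have a fitted effect of over 65% in size; a mitochondrial uncoupler was the plate control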
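Stable cell line treated 24 h with compounds at 5 concentrations (CCCP controls), then fixed and immunostained for PINK1 plus nuclear and cell stains; PINK1 immunofluorescence quantified by laser-scanning microplate cytometry.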
D2 ag: agonists of human D2 dopamine receptor (beta-arrestin); P14416; DiscoveRx PathHunter D2 beta-arrestin, luminescence, 90 min; 100% = 57 uM dopamine signal; activation, % (test concentration not listed); 0.084% of 360,000 active; in the data active = activation above about 40%; inconclusive = about 15% to 40%; inactive = below about 15%; also: compound concentration not given in the record; the text of the record calls up to 30% inactive
Target sequence (P14416 whole entry, looked up): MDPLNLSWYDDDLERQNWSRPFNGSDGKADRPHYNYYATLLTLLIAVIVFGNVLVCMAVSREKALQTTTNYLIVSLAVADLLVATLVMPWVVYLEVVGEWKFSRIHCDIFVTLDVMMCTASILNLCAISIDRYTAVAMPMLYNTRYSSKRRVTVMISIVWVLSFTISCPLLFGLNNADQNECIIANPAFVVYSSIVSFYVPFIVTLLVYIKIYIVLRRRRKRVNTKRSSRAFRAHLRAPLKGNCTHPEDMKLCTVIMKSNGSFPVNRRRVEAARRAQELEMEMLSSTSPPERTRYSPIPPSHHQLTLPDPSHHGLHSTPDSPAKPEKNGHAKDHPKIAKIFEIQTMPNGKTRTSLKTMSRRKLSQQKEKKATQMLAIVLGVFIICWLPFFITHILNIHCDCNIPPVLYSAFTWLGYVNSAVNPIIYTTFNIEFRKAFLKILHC
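DiscoveRx PathHunter D2 beta-arrestin cells (2,100/well) attached overnight, then compound-stimulated 90 min at 37 C in HBSS/10 mM HEPES/0.1% Tween-20 buffer; beta-galactosidase complementation read by luminescence after 1 h at ambient temperature. Dopamine 57 uM final (EC100) as control.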
TRPV1 PAM: enhances activation of the human vanilloid receptor TRPV1; Q8NER1; TRPV1-expressing cells, Fluo-8 calcium influx, capsaicin EC20 potentiation; host cell line not named in the record; control for the full effect not named in the record; potentiation, % at 8.33 µM; 0.02% of 320,000 active; AID 540277; active means potentiation above 80%; inconclusive means 30% to 80%; inactive means below 30%; also: 0% is about no effect
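Fluo-8 calcium influx in TRPV1-expressing cells, kinetic read (ex 480/em 520 nm). Compound added and read 3 min for agonist activity, followed by capsaicin at EC20 final and 2 min further read for enhancement.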
D2 potentiator: human D2 receptor positive allosteric modulation; P14416; DiscoveRx D2 beta-arrestin cells, luminescence, 90 min; 100% = 57 uM dopamine signal; potentiation, % (test concentration not listed); 0.23% of 360,000 active; AID 624464; active = potentiation of 50% or more; inconclusive = 30% to 50%; inactive = 30% or less;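 also: compound concentration not given in the record; tested on top of an EC20 dose of dopamine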
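PathHunter D2 cells, attached overnight at 37 deg C, received compound in DMSO plus dopamine at EC20 (50 nM final) for 90 min at 37 deg C. Beta-arrestin recruitment was read as luminescence after 1 h with detection reagent at ambient temperature.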
Six1-Eya2 inh: blocks human Six1 binding to Eya2; 0.56% of 360,000 active; AID 651725; Q15475+O00167; activity change, % (no concentration beside the values); AlphaScreen GST-Six1/His-Eya2 binding, biochemical; hits give low values; control for the full effect not named in the record; in the data active = activity change below about -65%; inconclusive = about -30% to -65%; inactive = above about -30%; also: % is scaled to controls: 0 for no effect and ±100 for the full control effect; compound concentration not given in the record
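Six1/Eya2 binding was read as AlphaScreen signal after compounds were pinned into GST-Six1 plus His-tagged Eya2 (5X stock 250/500 nM) in pH 8.0 Tris/NaCl/TCEP buffer, beads added, then incubated 1 h, 37 C, dark.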
Sfp PPTase inh: blocks B. subtilis Sfp PPTase activity; Q9F4F7; Biochemical Sfp PPTase activity, qHTS; Potency, µM, for the others: max response, negative = inhibition, usual class: inhibitors; 3.5% of 310,000 active; active = well fitted inhibition curve with a large enough effect; inconclusive = small, poorly fitted or top-dose-only effect, or another doubt; inactive = no such curve, though single readings can be large or run the other way;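 also: the enzyme is Sfp with the accession as filed and its product quenches rhodamine fluorescence; potency is read from the fitted curve at half-maximal effect; 0% = enzyme reaction without inhibitor and -100% = no enzyme wells; top concentration of the series not given in the record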
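After 15 min at room temperature with compound, 15 nM Sfp received 5 uM rhodamine-CoA plus 12.5 uM BHQ-2-ybbR (50 mM Hepes pH 7.6, 10 mM MgCl2). Rate came from the fluorescence difference over 30 min, ex 525/em 598 nm.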
An asterisk follows results filed as active; ? = inconclusive; / = not tested or not shown; & = joins results of further samples; [ ] = remark or other dose.

Structure	CtBP-E1A inh	PINK1 expr mod	D2 ag	TRPV1 PAM	D2 potentiator	Six1-Eya2 inh	Sfp PPTase inh
COc1cccc(OCC(=O)O/N=C(\N)c2ccc(OC)c(OC)c2)c1	6	0.5%	-0.4	6	6	27	4%
COc1ccc(Nc2ncnc3c2oc2ccccc23)cc1	-2	-0.7%	-1.2	-15	-3	-8	?
Cc1ccc(NC(=S)N/N=C/c2ccc(OCCC(C)C)cc2)c(C)c1	-4	16%	-7.5	-4	-32	-7	17%
Cc1ccc(NC(=O)c2cc3ccccc3cc2O)cc1	8	?	13	17	6	11	13%
COc1ccc(Cl)cc1-c1nc(-c2ccc(NC(=O)c3ccncc3)cc2)no1	-1	-0.4%	-4.5	/	-1	-2	/
CCOc1cc(C=O)ccc1OCC(=O)N1CCCC1	/	2.4%	-0.9	6	5	7	13%
C=CCNC(=O)CSc1nnc(C(CC)N(C)C)n1C1CCCCC1 (stereo not given)	3	-0.8%	3.3	-5	2	4	-14%
COC(=O)c1ccc(C(=O)OC)c(NC(=S)N2CCN(c3cccc(Cl)c3)CC2)c1	-16	-3.4%	-6.4	2	-5	-21	8%
CCOC(=O)C1(Cc2cccc(OC)c2)CCN(CC(O)CO)CC1 (stereo not given)	4	-0.7%	-0.5	-14	-12	0	19%
CCCNC(=O)c1onc(CSc2ccc(Cl)cc2)c1C(=O)NCCOC	6	1.1%	-0.2	/	2	0	/
O=C(c1cc2c(s1)-c1ccccc1OC2)N1CCCC1	14	8.5%	4.3	-23	11	3	18%
COc1ccc(OC)c(C2Nc3nc4ccccc4n3C(C)=C2C(=O)Nc2ccc(C)cc2C)c1 (stereo not given)	-7	3.7%[38.3 µM]	-1.3	1	-3	0	7%
CCOc1ccc(N(CC(=O)Nc2ccccc2C(=O)NC(C)CC)S(C)(=O)=O)cc1 (stereo not given)	-2	1.8%	-2.5	1	-8	8	-4%
Cc1ccc(NCC(=O)Nc2ccc(F)c(Cl)c2)cc1S(=O)(=O)N1CCOCC1	1	3.0%	-2.8	/	-13	-14	/
CCN(CC(=O)Nc1ccc(C)c(F)c1)CC(=O)NC(C)(C)C	6	5.2%	1.0	-22	-5	0	14%
CCCn1c(SCC(=O)N2CCN(CC)CC2)nc2c1c(=O)n(C)c(=O)n2C	0	0.7%	-2.3	4	-6	0	13%
O=C(NCC1COCCO1)c1cc(COc2ccc(F)cc2F)on1 (stereo not given)	3	0.2%	-2.2	2	2	12	8%
COc1ccc(OC)c(/C(O)=C/C(=O)C(=O)Nc2cc(C)cc(C)c2)c1	1	-3.5%	-1.0	-3	2	-1	-1%
C/C(=C/c1ccccc1)C(=O)N1CCN(c2ccccc2)CC1	0	-0.1%	3.7	-10	-1	14	3%
O=C(Cc1ccccc1)Nc1ccc2c(c1)OC1(CCCC1)O2	10	-1.6%	-0.5	-19	-12	-19	/
Cc1cccc(OCc2nnc(SCC(=O)N3CC(=O)Nc4ccccc43)o2)c1	1	1.6%	-1.5	2	-1	1	12%
COc1ccc(CCNC(=O)C2CCN(C(=O)c3ccc([N+](=O)[O-])cc3)CC2)cc1	-12	-1.7%	-4.3	9	-4	-5	1%
Cn1c(Cn2c(=O)sc3ccccc32)nnc1SCC(=O)NCc1ccccc1	1	0.3%	-0.4	21	-1	-1	8%
Cc1cc(NC(=O)c2cccc(S(=O)(=O)N3CC(c4ccccc4)CC3=O)c2)no1 (stereo not given)	3	3.0%	-0.4	-2	-2	1	32%[activator]
Cc1cc(C)c2nc(SCCc3ccccc3)nc(C)c2c1	40	8.0%	-5.0	5	-1	56	?
O=C(NCC1CCCO1)C1CCCN1C(=O)NC1CCCCC1 (stereo not given)	4	-0.1%	4.3	7	-11	-4	17%
CCCc1cc(=O)[nH]c(SCC(=O)Nc2sc3c(c2C#N)CCCC3)n1	-7	0.1%	-4.5	15	-12	-2	25%
O=C(CSc1ncccn1)NC(=O)NC1CCCC1	1	1.0%	-0.1	/	-3	-1	/
COc1ccc(N2CCN(C(=O)C3CCCN(S(=O)(=O)c4ccc5c(c4)oc(=O)n5C)C3)CC2)cc1 (stereo not given)	6	0.4%&3.1%	-1.9	2	-9	0	4%
Cc1ccc(C(O)c2ncc(-c3ccccc3F)[nH]2)cc1F (stereo not given)	-8	1.2%	-1.3	/	-9	-8	/
COc1ccc(-c2nc(N)ncc2-c2ccc(Cl)cc2)c(O)c1	-9	4.6%	-3.1	7	6	-20	-4%
Cc1cccc(NC(=S)NCC(c2cccnc2)N2CCOCC2)c1 (stereo not given)	3	-0.9%	-0.6	-14	19	3	5%
COc1ccc2c(C)c(Cl)c(=O)oc2c1	-3	1.3%	-3.4	9	-5	-7	18%
Cc1ccc2nc(-c3ccc(NC(=S)NCCC(C)C)cc3)sc2c1	/	0.5%	7.8	/	10	2	/
CCN(CC)S(=O)(=O)c1ccc(/C=C/C(=O)OCC(=O)N(C)C)cc1	2	1.6%	-1.3	-10	9	0	22%
COc1ccc(S(=O)(=O)Nc2cccc(SC)c2)cc1C(=O)N1CCOCC1	-17	-0.6%	2.8	3	8	7	13%
CC(=O)Nc1ccc(NC2=CC(=O)c3ccccc3C2=O)cc1	-6	0.1%	5.4	27	22	-4	56µM*
O=C1c2ccccc2C(=O)c2c(Nc3ccc(CCO)cc3)ccc(O)c21	/	7.0%	41*	-3	-14	-83*	?
CCc1ccc(C2CC(c3cccc(Cl)c3)n3nc(N)nc3N2)cc1 (stereo not given)	2	1.4%	-0.8	-18	-4	-2	-20%
COc1cc(Cl)c(C)cc1NCC(=O)Nc1cccc(S(=O)(=O)N2CCCC2)c1	-25	-0.6%	-0.4	?	-3	-20	/
c1ccc(-c2nc3ccccc3[nH]2)nc1	-4	0.5%	-0.3	-7	-2	?	?
C[C@@H]1CN([C@@H](C)CO)C(=O)Cc2cc(NC(=O)Nc3cccc4ccccc34)ccc2O[C@@H]1CN(C)S(C)(=O)=O	2	7.0%	5.0	/	3	-1	/
CC(=O)c1cccc(S(=O)(=O)Nc2ccccc2N2CCOCC2)c1	2	-0.4%	4.0	/	-3	10	/
CN1Cc2ccccc2CC1CNCc1c(C(=O)N2CCCC2)nc2ccccn12 (stereo not given)	1	-0.7%	-0.3	-1	-7	9	5%
COc1ccc(/C=C(/NC(=O)c2cccs2)C(=O)Nc2ccc(C)cc2)cc1OC	6	6.3%	-4.3	15	-9	2	-24%
O=C(NC1CC1)C1=C[C@@H](C2CC2)C[C@@H](OCCCCO)O1	9	-0.2%	-3.4	/	-2	1	/
CCOC(=O)C1CCCN(CCC(=O)Nc2cccc(Cl)c2C)C1 (stereo not given)	-3	1.9%	-4.3	-6	-3	-13	1%
O=C(NCCN1CCN(C(=O)C(c2ccccc2)c2ccccc2)CC1)C(=O)Nc1ccccc1	1	1.1%	-3.8	15	-23	4	17%
CC(C)(C)N=Cc1c(O)ccc2oc3c(c12)CCCC3	3	-2.2%	-11	4	-11	16	-14%
CCCNC(=O)c1cccc(S(=O)(=O)N2CC3(C)CC2CC(C)(C)C3)c1 (stereo not given)	-5	-0.5%	-2.6	-27	12	-1	/
CC(=O)c1c(C)[nH]c(C(=O)OCCCCN2C(=O)c3ccccc3C2=O)c1C	2	-0.9%	-1.8	?	9	-6	-5%
CN(C)CCCn1c(N)c(C#N)c2nc(C#N)c(C#N)nc21	-3	2.4%	0.0	11	-28	-7	18%
COc1ccc(S(=O)(=O)N/N=C\c2ccc(OC)c(COc3ccc(C)cc3[N+](=O)[O-])c2)cc1	-3	6.4%	-5.4	1	-12	-7	22%
CCOC(=O)C1CCCN(C(=O)Cc2c(F)cccc2Cl)C1 (stereo not given)	5	-5.4%[38.3 µM]	2.8	-12	-5	2	-6%
Cc1ccc(OCCN2CCC2(C)C(=O)NCc2ccc(C(F)(F)F)cc2)cc1 (stereo not given)	12	7.2%	-2.9	/	-9	3	/
O=C(O)C1(S(=O)(=O)c2ccc(Cl)cc2)CCC1	-12	0.8%	-1.4	4	1	14	9%
COC(=O)[C@]12CCCCC=C1N(CCC1=CCCCC1)C(=O)[C@H](CC(=O)N1CCSCC1)C2	-8	0.5%	/	/	/	-5	/
COc1cccc(-n2ccnc2SCC(=O)Nc2ccccc2)c1	-11	2.0%	-3.9	-21	-32	-11	4%
Oc1ccc(Cl)cc1CNc1nccs1	7	3.4%	-1.0	-15	-1	-4	9%
COC(=O)c1ccc(NC(=O)c2ccc(NC(=O)c3ccco3)cc2)cc1	7	12%	1.1	1	-2	2	-17%

New compounds follow.
Structure	CtBP-E1A inh	PINK1 expr mod	D2 ag	TRPV1 PAM	D2 potentiator	Six1-Eya2 inh	Sfp PPTase inh
O=c1ccc(-c2ccc(S(=O)(=O)Nc3cccc(F)c3)o2)n[nH]1	-25	0.1%	0.8	6	-7	-7	17%
COc1ccc(N(CC(=O)Nc2ccccc2C)S(=O)(=O)c2ccccc2[N+](=O)[O-])c(OC)c1	/	1.4%	4.3	-14	-3	-8	21%
O=C(CSc1nnc(CNC(=O)c2cccs2)o1)Nc1cccc(Cl)c1	5	-1.5%	-1.0	2	-17	6	15%
COc1ccc(NC(=O)/C(=C\c2cccs2)NC(=O)c2ccco2)cc1	2	0.1%	-4.6	7	-2	0	-1%
O=C(NCc1n[nH]c(=S)n1-c1ccc(Cl)c(Cl)c1)c1cccs1	3	-0.7%	-3.7	-2	-8	3	89µM*
C/C(=C\C(=O)c1ccc(F)cc1)Nc1ccc(N2CCOCC2)cc1	-23	13%	0.6	-8	21	-19	-19%

Of the compounds above, two have a cyano group.
Structure	CtBP-E1A inh	PINK1 expr mod	D2 ag	TRPV1 PAM	D2 potentiator	Six1-Eya2 inh	Sfp PPTase inh
CCCc1cc(=O)[nH]c(SCC(=O)Nc2sc3c(c2C#N)CCCC3)n1	-7	0.1%	-4.5	15	-12	-2	25%
CN(C)CCCn1c(N)c(C#N)c2nc(C#N)c(C#N)nc21	-3	2.4%	0.0	11	-28	-7	18%
